Compound activity from PubChem BioAssay.
ALR H2O2 inh: human ALR oxidase inhibition via reduced H2O2; P55789; purified ALR, DTT oxidation, H2O2 HRP-luminol luminescence; inhibition, % (concentration not given with the values); 3.8% of 290,000 active;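 active = mean and each replicate at 75% or more; inconclusive = only one of the two met; inactive = neither met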;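 also: stock transfer was 7.5 nL into about 7.5 µL; 0% = neutral wells and 100% = wells with inactivated enzyme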
Target sequence (P55789 whole entry, looked up): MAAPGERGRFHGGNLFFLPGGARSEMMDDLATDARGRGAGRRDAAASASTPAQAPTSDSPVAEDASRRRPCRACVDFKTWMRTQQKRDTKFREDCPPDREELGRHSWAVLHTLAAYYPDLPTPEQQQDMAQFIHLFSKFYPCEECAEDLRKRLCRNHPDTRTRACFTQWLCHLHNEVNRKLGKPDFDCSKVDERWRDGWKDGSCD
Calb FLC: C. albicans growth modulation with fluconazole | 0.57% of 300,000 active | growth inhibition, % (concentration not given with the values) | C. albicans CaCi-2 (fluconazole-resistant clinical isolate) + fluconazole, Alamar Blue growth, 48 h;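 active = most replicates above 75%; inconclusive = exactly half above 75%; inactive = most below 75%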;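 also: all wells also contain fluconazole at 8 µg/ml as a sub-toxic cotreatment; 0% = median of DMSO wells and 100% = median of geldanamycin control wells; wells of about 8 µL received 7.5 nL stock; the first replicate is given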
Beta apoptosis: blocks beta cell apoptosis; INS-1E cytokine-induced death, ATP luminescence, 48 h; percent of positive-control rescue, neutral wells zero; protection from apoptosis, % (test concentration not listed); 0.8% of 300,000 active; AID 435005;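 active = all replicates at 75% or more, or half of them and the mean; inconclusive = half reach 75% but not the mean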;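 also: 0% = cytokine-treated negative control wells and 100% = positive control rescue; higher means more ATP so stronger rescue from cytokine killing; wells of about 40 µL received 100 nL stock; the first replicate is given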
T cruzi repl: blocks replication of Trypanosoma cruzi; inhibition, % (concentration not given with the values); 1.4% of 300,000 active; T. cruzi beta-gal in NIH3T3, luminescence, 90 h; AID 1885;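 active = mean inhibition across valid replicates above about 55%, limit read from the data; inconclusive = mean below that limit but half or more replicates reach it; inactive = mean below it, under half of replicates reach it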;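 also: signal also drops with host cell toxicity which is not excluded here; 0% = plate median of DMSO wells and 100% = zero luminescence signal; higher percent means less beta-gal luminescence so fewer parasites; stock transfer was 50 nL into about 50 µL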
RanGTP-Imp inh: disruptors of Ran-importin-beta complex formation – biochemical, FRET, CFP-Ran, YFP-importin-beta, homogeneous, primary screen | AID 2216 | 1.1% of 300,000 active | cell-free CFP-Ran/YFP-importin-beta FRET ratio | inhibition, % (concentration not given with the values);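 active = most replicates above 15%; inconclusive = exactly half above 15%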;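 also: 0% = DMSO wells and 100% = Ran loaded with GDP instead of GTP; wells of about 40 µL received 100 nL stock; the first replicate is given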
FGF22 binding: FGF22 (human) thermal shift binding | recombinant FGF22 thermal shift, SYPRO orange fluorescence; percent of sucrose octasulfate shift, DMSO zero | AID 651658 | 1.5% of 340,000 active | Q9HCT0 | calls only at 9.99 µM;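 active = melting point raised past a set limit in the mean and every replicate; inconclusive = no clear call; three in four hits are not shown here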
Target sequence (Q9HCT0 whole entry, looked up): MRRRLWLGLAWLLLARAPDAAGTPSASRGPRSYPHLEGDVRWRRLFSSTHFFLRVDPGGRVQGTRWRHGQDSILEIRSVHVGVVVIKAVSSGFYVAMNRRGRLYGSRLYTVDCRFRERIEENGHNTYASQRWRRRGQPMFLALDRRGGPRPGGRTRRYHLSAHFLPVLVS
rRNA inh HTS: inhibits bacterial ribosomal RNA function over humanized ribosomes; GFP signal change (wild-type ribosome), % (test concentration not listed); E. coli WT GFP vs humanized-ribosome RFP mutants, fluorescence, 24 h; stronger effect = lower value; DMSO median 0, no signal -100; 1.6% of 350,000 active; AID 720706;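 active = significant combined selectivity score with lowered wild-type GFP, culture density cut under 30%, mutant RFP and density less affected; inactive = any of these conditions unmet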; also: one replicate is shown; some compounds called inactive have numbers as strong as hits
MLL AF4-AF9 inh: inhibitors of human MLL-AF4/AF9 interaction. inhibition, % at 10 µM. AlphaScreen, biotin-AF4 peptide binding to FLAG-AF9. P42568. 0.47% of 350,000 active;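 active = every replicate reaching a set inhibition limit, whatever the replicate mean, cut at about 25% in these data; inconclusive = mean inhibition reaches that limit but some replicates miss it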;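 also: 0% = plate neutral control median and 100% = total signal loss; the record names both 10 and 1 µM as test concentration; the first replicate is given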
Target sequence (P42568 whole entry, looked up): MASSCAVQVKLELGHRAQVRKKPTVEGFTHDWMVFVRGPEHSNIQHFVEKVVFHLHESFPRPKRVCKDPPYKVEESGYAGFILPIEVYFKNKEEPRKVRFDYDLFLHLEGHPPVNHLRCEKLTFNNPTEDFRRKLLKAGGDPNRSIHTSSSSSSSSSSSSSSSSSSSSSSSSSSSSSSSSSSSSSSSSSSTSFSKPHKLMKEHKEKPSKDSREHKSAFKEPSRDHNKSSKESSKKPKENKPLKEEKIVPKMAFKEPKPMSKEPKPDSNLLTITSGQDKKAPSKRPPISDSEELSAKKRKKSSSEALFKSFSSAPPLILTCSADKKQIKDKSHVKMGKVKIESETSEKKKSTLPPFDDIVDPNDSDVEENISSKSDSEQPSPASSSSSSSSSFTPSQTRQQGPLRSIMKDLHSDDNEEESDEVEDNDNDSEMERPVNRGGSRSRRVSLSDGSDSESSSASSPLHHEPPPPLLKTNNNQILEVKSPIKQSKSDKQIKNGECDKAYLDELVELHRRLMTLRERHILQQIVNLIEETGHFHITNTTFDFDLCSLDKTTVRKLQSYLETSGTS
rRNA inh HTS OD600: also measured in rRNA inh HTS; calls as there; OD600 change, %; measured here: OD600 growth;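 optical density of the mix in the first replicate; 0 = DMSO median and -100 = no signal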
rRNA inh HTS RFP: recorded beside rRNA inh HTS, whose call it bears; RFP signal change, %; measured here: RFP humanized mutant strains;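 first replicate; 0 = DMSO median and -100 = no signal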
The depositor's hits bear a star; i = inactive; ? = inconclusive; . = no result given; & = joins results of further samples.

SMILES | ALR H2O2 inh | Calb FLC | Beta apoptosis | T cruzi repl | RanGTP-Imp inh | FGF22 binding | rRNA inh HTS | rRNA inh HTS OD600 | rRNA inh HTS RFP | MLL AF4-AF9 inh
Cc1c(C(=O)N2CCC(C)CC2)oc2ccc3c(c12)C(O)CC1(CCCCC1)O3 (stereo not drawn) | -2 | -3 | 4 | 6 | 1.4 | i | -35 | -54 | 13 | 2.3
COc1cccc2cc(-c3nnc(-c4ccccc4)o3)c(=O)oc12 | -4 | 6 | -7 | -4 | ? | i | 14 | 27 | 2.6 | -2.2
CCCCCCSc1ccc([C@@H]2[C@@H]3C(=O)N(CC)C(=O)[C@@H]3[C@]3(C(=O)OC)CCCCN23)cc1OC | -23 | . | 9 | . | . | i | -6 | -2 | 12 | -1.7
Cc1ccc(NC(=O)COC(=O)c2ccc(-n3nc(C)cc3C)cc2)c(F)c1 | -9 | . | 4 | . | . | i | 7 | 9 | 3.4 | 0.4
COc1ccc(NC(=S)NNC(=O)c2ccccc2OC(F)F)cc1 | 69 | 25 | -7 | -26 | 2.8 | . | . | . | . | .
O=S(=O)(N/N=C/c1cccnc1)c1ccc(Cl)c(Cl)c1 | 1 | 8 | -22 | -8 | 2.4 | i | . | . | . | -0.9
CCn1c(SCC(=O)N2CCCC2)nc2c1c(=O)n(C)c(=O)n2C | -5 | ? | 1 | 3 | 1.7 | i | 4 | -7 | -4.7 | 5.1
COc1cccc(CNC(C)C(=O)Nc2ccc3c(c2)OCCO3)c1 (stereo not drawn) | 0 | ? | -3 | -1 | 1.3 | i | 7 | -2 | 2.2 | -0.3
COc1ccc(-c2nn(-c3ccccc3)cc2C(=O)NCC2CCCO2)cc1 (stereo not drawn) | 0 | 6 | 5 | 8 | 2.8 | i | -4 | -2 | -1.6 | -0.7
CCCCOc1ccc(C(=O)NCC(=O)NCCOc2ccccc2OC)cc1 | -1 | . | 2 | . | . | i | -2 | -4 | -3.2 | -0.1
CCOC(=O)c1c(-c2ccc(OC)cc2)csc1NC(=O)CNCc1ccco1 | -3 | 27 | 5 | 31 | -1.5 | i | -8 | -6 | -12 | 6.3
S=c1[nH]nc(-c2ccc(Cl)cc2Cl)n1Cc1ccccc1 | . | -8 | -1 | 2 | -0.8 | i | . | . | . | 1.4
O=C(Cn1cncn1)NCc1cccc(OC(F)F)c1 | 18 | -13 | -4 | -17 | 3.1 | i | 0 | 1 | -1.6 | -1.5
CCN(CC)CCN(C(=O)C1=COCCO1)c1nc2ccc(C)cc2s1 | -9 | 5 | -5 | 59* | -3.1 | i | 8 | 9 | 1.1 | 0.5
COc1ccc(C(=O)N2CCc3cc(OC)c(OC)cc3C2c2ccc(OC)c(OC)c2)cc1OC (stereo not drawn) | -3 | -7 | 1 | -6 | 2.6 | i | -3 | 0 | -1.2 | 7.6
CCN(Cc1ccncc1)C(=O)c1cc(COc2ccc(OC)cc2Cl)on1 | -17 | 9 | -1 | 26 | 2.9 | i | -3 | -15 | 1.5 | 1.1
c1ccc2c(c1)CCN(c1nc3cc4c(cc3s1)OCCO4)C2 | 3 | -6 | 14 | 24 | ? | . | . | . | . | .
Cc1cccc2sc(NC(=O)CSc3cn[nH]n3)nc12 | -2 | 0 | 0 | 3 | 1.4 | i | -8 | -16 | -0.5 | 0.6
CCN(CC)C(=O)C1CC(=O)OC12CCCCC2 (stereo not drawn) | -24 | 10 | -6 | -6 | 1.2 | . | . | . | . | .
COc1cc2c(cc1OC)C(c1ccccc1N)=NCC2 | -2 | -19 | 2 | 13 | -10 | i | 12 | -10 | -0.2 | .
O=C1NNC(=O)C1c1ccccc1 | ? | 2 | 5 | -4 | 0.1 | i | 13 | 9 | 0.7 | -2.9
Cc1ccc(C)c(N2CCN(C(=O)CCS(=O)(=O)c3ccc4c(c3)NC(=O)CO4)CC2)c1 | 7 | 17 | . | 10 | 2.7 | i | -17 | -18 | 5.9 | 4.6
COc1ccc(-n2c(SCC(=O)Nc3ccc4c(c3)OCO4)nc3c(c2=O)SCC3)cc1 | 3 | 6 | -3 | 17 | -1.4 | i | -4 | 5 | 3.1 | 8.5
CC1(C)CC(c2nc(-c3ccc(Cl)cc3)cs2)CCS1 (stereo not drawn) | 13 | -17 | 2 | 8 | -1.1 | . | . | . | . | .
NC(=O)C1CCN(C(=O)CCSc2ccc(Cl)cc2)CC1 | -4 | -3 | -1 | -12 | 2.1 | i | -12 | -23 | -4.2 | -1.7
O=C(CSc1nc2ccc(Cl)cc2[nH]1)NCCc1ccc(Cl)cc1 | . | -10 | -6 | -10 | -0.9 | i | . | . | . | 0.4
CSCC(C)N1CCC(n2nccc2NC(=O)CCCc2ccccc2)CC1 (stereo not drawn) | -9 | 2 | -2 | 31 | 11 | i | 9 | 1 | 2.1 | 2.0
CCOC(=O)C(NC(=O)c1ccc(Cl)cc1Cl)(Nc1ccc(C)cc1)C(F)(F)F (stereo not drawn) | -22 | -9 | -10 | -15 | -0.9 | . | . | . | . | .
CC1=C(C(=O)OC(C)C)C(c2cccs2)n2ncnc2N1 (stereo not drawn) | 4 | 14 | 1 | 5 | 7.6 | i | 2 | -1 | -1.2 | -3.7
COc1ccc(C(=O)N/C(=C\c2cn(C)c3ccccc23)C(=O)N2CCN(C)CC2)cc1 | 40 | -6 | 0 | -2 | 3.5 | i | 1 | 1 | -0.8 | 6.2
CC(=O)Oc1ccc2ccccc2c1C(NC(=O)Cc1ccccc1)c1ccccc1Cl (stereo not drawn) | -19 | 2 | 3 | 31 | -2.5 | . | . | . | . | .
Cc1cc(-c2ccccc2)nc2oc(C(=O)NN)c(N)c12 | . | -3 | . | -7 | 6.2 | i | 6 | 7 | -0.3 | .
O=C(CCCc1ccccc1)N=C1SC2CS(=O)(=O)CC2N1c1ccccc1 (stereo not drawn) | . | 4 | -3 | 11 | 0.8 | i | 9 | 6 | 1.5 | -2.1
CC(C)N1CCC(N2CCN(Cc3ccc(Oc4ncccn4)cc3)CC2CCO)CC1 (stereo not drawn) | -5 | -1 | -5 | -4 | -1.7 | i | 5 | 3 | -5.7 | 2.7
Cc1cc([N+](=O)[O-])nn1Cc1ccc(C(=O)N/N=C/c2ccccc2)cc1 | -3 | 4 | -4 | 31 | 0.8 | . | . | . | . | .
Cc1cc(C(=O)N/N=C/c2ccc(O)c(O)c2O)c(C)n1-c1ccccc1 | . | 6 | . | 20 | 0.3 | i | 23 | -2 | 43 | 5.5
C/C(=N/NS(=O)(=O)c1ccccc1)c1c[nH]c2ccccc12 | 44 | 8 | -5 | -14 | 6.0 | i | 2 | 11 | -0.1 | 1.5
CCCC(NS(=O)(=O)c1ccc(Br)cc1)C(=O)O (stereo not drawn) | -9 | -11 | -4 | -4 | 1.7 | . | . | . | . | .
Cc1ccc(-c2nc3cccnc3s2)cc1NC(=O)C1c2ccccc2Oc2ccccc21 | . | -1 | . | 0 | ? | i | -6 | -4 | -3.2 | 8.6
COc1ccc(CN=C2Nc3ccccc3CS2)cc1 | 1 | 3 | -5 | 32 | 6.8 | . | -4 | -11 | 0.3 | .
CCN(CC)C(c1ccc(F)cc1)c1nnnn1C1CCCCC1 (stereo not drawn) | -33 | 3 | -6 | 2 | 3.0 | . | . | . | . | .
CCc1nccn1CCC(=O)NC1CC(C)(C)Cc2c1cnn2-c1ccc(C)cc1 (stereo not drawn) | 0 | 0 | 5 | -3 | 6.1 | i | 3 | 6 | 0.7 | -5.7
ON=C1/C(=N\O)CC2(C/C1=N/O)OCCO2 | -23 | -6 | -2 | -8 | -1.5 | i | -29 | -44 | -7.7 | 6.1
COc1ccc(NC2CCCN(C(=O)CCCn3cncn3)C2)cc1OC (stereo not drawn) | 94* | -8 | -1 | -11 | -0.1 | i | 8 | 14 | 0.5 | -27
CC(C)N(C=O)C1(C(=O)NC2CCCCC2)CCCCC1 | -2 | 22 | -3 | -10 | -0.8 | . | . | . | . | .
CN1Cc2c(N3CCOCC3)nc(SCCC#N)c(C#N)c2CC1(C)C | . | -2 | 2 | 36 | 9.7 | i | 3 | 9 | -0.3 | -1.1
Cc1ccc(C)c(NC(=O)c2cc3ccccc3o2)c1 | 1 | -2 | -11 | 3 | 0.6 | i | -2 | 9 | -4.2 | -3.8
CC(C)NC(=S)Nc1ccc2cn[nH]c2c1 | 20 | 32 | -21 | 2 | -1.3 | . | . | . | . | .
CCN(CC)CCN1C(=O)c2ccccc2NC1c1ccc(C)cc1 (stereo not drawn) | 1 | -9 | -2 | 4 | 1.0 | . | . | . | . | .
CCCCN(Cc1cc2cc(C)ccc2[nH]c1=O)C(=O)c1ccccn1 | -19 | 2 | -2 | 6 | -2.7 | i | 0 | -3 | -8.8 | -0.3
CCOC(=O)N1CCN(C(=O)c2cc3c(-c4cccc(OC)c4)nn(C)c3s2)CC1 | -9 | 7 | 11 | 6 | 4.9 | i | -29* | -22* | -0.6* | -4.7
COc1cc(-n2c(=O)c3ccccc3n(Cc3cccc(F)c3)c2=O)cc(OC)c1OC | -7 | 0 | 1 | -9 | 3.8 | i | 9 | 5 | -0.3 | -14
CCOc1cccc(CN2CCN(CCCc3ccccc3)C(CCO)C2)c1O (stereo not drawn) | 55 | -6 | 1 | 17 | 2.8 | i | 10 | 5 | -0.8 | 3.4
CC(C)(C)c1ccc(C(=O)NC(=O)CSc2n[nH]c(N)n2)cc1 | 0 | . | -6 | . | . | i | -3 | -3 | -0.5 | -0.1
Cc1nc2ccc(NC(=O)/C=C/C(=O)O)cc2nc1C | -24 | 0 | -11 | -21 | -1.0 | . | 4 | 6 | 9.7 | 0.1
O=S(=O)(NCc1ccccc1)c1cccc2cccnc12 | -6 | -14 | -9 | -8 | 0.3 | . | . | . | . | .
O=C(Nc1nc(=O)n(C(=O)c2cccc(C(F)(F)F)c2)s1)c1ccccc1 | 97* | -12 | -4 | -15 | 3.5 | i | 4 | 7 | -3.3 | -16
C/C(CCc1ccco1)=N/NC(=O)CCC(=O)Nc1cccc(Cl)c1 | -7 | 7 | -8 | -7 | 0.9 | . | . | . | . | .
Cc1ccc(C)c(NC(=S)N(Cc2ccc(Cl)cc2)Cc2ccc(C(=O)O)cc2)c1 | . | -4 | -5 | 9 | 3.2 | . | -16 | -10 | -7.5 | -1.4
Cn1c(SCC(=O)Nc2ccccc2O)nnc1-c1ccco1 | 70 | 15 | -7 | -6 | -1.2 | i | 7 | 12 | 0.6 | 2.5
C[C@@H]1CN([C@@H](C)CO)C(=O)c2cc(NC(=O)CCC(F)(F)F)ccc2O[C@H]1CN(C)Cc1ccc(Cl)c(Cl)c1 | . | . | 1 | . | . | i | -6&-27 | -49&-56 | 19&16 | 5.6

Not all compounds are listed. The share of hits here may be higher or lower than overall.
